Assay outcomes: PubChem BioAssay, ICCB-Longwood Screening Facility, Harvard Medical School
Anaer choline gr – inhibitors of anaerobic choline-dependent gram-negative bacterial growth; calls only; actives 0.2% (n = 55,000); AID 1963822; Gram-negative bacterium anaerobic choline minimal medium, absorbance growth; stronger effect = lower value; many inactives read as strong as hits in the columns shown;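 active means growth z-score on choline under -2 at 7 or 20 h with little or no fall on glycerol, limits in tiers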;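 further: stock transfer was 300 nL into about 50 µL; the organism is E. coli; final concentration not given here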
Anaer choline gr early – recorded beside Anaer choline gr, whose call it bears; z-score; measured here: choline growth z-score, timepoint 1;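 score of optical density at 7 h as mean of two plates; lower means less growth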
Active calls of the source: *; & = joins results of further samples. Only part of the results is shown; rates above refer to the full screens.

Screening c1ccc(C2NNCC2c2ccnc3ccccc23)nc1 (stereo unspecified) returned Anaer choline gr inactive and Anaer choline gr early 0.21.
`COc1ccccc1NC(=O)CN1N=C(c2ccccc2)c2ccccc2S1(=O)=O` gave Anaer choline gr inactive and Anaer choline gr early 2.39.
Screening Cc1c(CCNC(=O)CCCc2ccccc2)sc2nc(-c3ccc(F)cc3)nn12 returned Anaer choline gr inactive and Anaer choline gr early 0.35.
For COc1ccc(S(=O)(=O)c2c(C)cc(C)[nH]c2=O)cc1 the results were Anaer choline gr inactive and Anaer choline gr early -0.89.
`CC(=O)Nc1ccc(N2C(=O)c3cc4ccsc4n3CC2(C)C(=O)NC2CCCCC2)cc1` (stereo unspecified) gave Anaer choline gr inactive and Anaer choline gr early 0.28.
Screening CCCCc1nc2c3c(C)c(C)n(-c4ccc(F)cc4)c3ncn2n1 returned Anaer choline gr inactive and Anaer choline gr early 0.32.
For Cc1cccc(-c2ccc(C(=O)Nc3ccc4c(c3)OCCO4)cn2)c1 the results were Anaer choline gr inactive and Anaer choline gr early -0.25.
Cc1cccc(NC(=O)C2CCN(S(=O)(=O)c3cccc4nsnc34)CC2)c1C was read as Anaer choline gr inactive and Anaer choline gr early 1.3.
CCn1nccc1NC(=O)c1ccccc1 was read as Anaer choline gr inactive and Anaer choline gr early -0.22.
Screening C=CCSc1nc2c(c(=O)[nH]1)C(c1cc(F)cc(F)c1)CC(=O)N2 (stereo unspecified) returned Anaer choline gr inactive and Anaer choline gr early 1.51.
O=C(c1cc2ccccc2[nH]1)N1CCN(c2ccc(=O)n(-c3ccc(F)cc3)n2)CC1 was read as Anaer choline gr inactive and Anaer choline gr early 0.2.
For COCCNS(=O)(=O)c1c(C)[nH]c(C)c1-c1nnc(C2CCC2)o1 the results were Anaer choline gr inactive and Anaer choline gr early 0.37.
`O=C(c1ccc(Nc2ccc(F)cc2)nn1)N1CCc2ccccc21` gave Anaer choline gr inactive and Anaer choline gr early 0.21.
For O=C(CN1C(=O)CC(c2ccccc2)=Nc2ccccc21)Nc1cccc(Br)c1 the results were Anaer choline gr inactive and Anaer choline gr early 0.78.
`COc1cc(OC)cc(-c2noc(CCn3nc(-c4ccccc4)ccc3=O)n2)c1` gave Anaer choline gr inactive and Anaer choline gr early 0.27.
`COc1ccc(-n2nnc(-c3nc(-c4ccccc4OC)cs3)c2N)cc1` gave Anaer choline gr inactive and Anaer choline gr early -1.47.
Screening COC(=O)c1c(N2CCCC2=O)c2cc(C)ccc2n1C returned Anaer choline gr inactive and Anaer choline gr early -0.47.
`Cc1ccc2oc(-c3nnc(C(=O)NCCC4=CCCCC4)o3)c(C)c2c1` gave Anaer choline gr inactive and Anaer choline gr early 1.04.
c1cnc2nc(N3CCOCC3)oc2c1 was read as Anaer choline gr inactive and Anaer choline gr early 0.52.
Screening Cc1oc(=O)oc1CN1CCN(c2cc3c(cc2F)c(=O)c(C(=O)O)c2n3C(C)C2)CC1 (stereo unspecified) returned Anaer choline gr inactive and Anaer choline gr early -2.88.
COc1ccc(OC)c(N2C(=O)c3cc(C(C)(C)C)nn3CC2(C)C(=O)NC2CCCCC2)c1 (stereo unspecified) was read as Anaer choline gr inactive and Anaer choline gr early 0.32.
Cc1ccc(-c2nn3c(=O)cc(CNC(=O)Nc4ccc5c(c4)OCCO5)nc3s2)cc1 was read as Anaer choline gr inactive and Anaer choline gr early 0.09.
`O=C(NCCCN1CCCC1=O)c1ccc(C2Nc3ccccc3S(=O)(=O)N2)cc1` (stereo unspecified) gave Anaer choline gr inactive and Anaer choline gr early -0.95.
`CCN(CC)CCn1c(C)c(C)c2c1ncn1nc(-c3ccccc3Br)nc21` gave Anaer choline gr inactive and Anaer choline gr early -0.09.
CCc1ccc(NC(=O)CCn2c(C(F)(F)F)nc3cc(S(=O)(=O)N(C)C)ccc32)cc1 was read as Anaer choline gr inactive and Anaer choline gr early 0.27.
For CN(C)C(=O)CN1C(=O)COc2ccc(C(=O)NCc3ccc4c(c3)OCO4)cc21 the results were Anaer choline gr inactive and Anaer choline gr early 0.23.
For O=C(Nc1ccc2c(c1)CCC2)N1CCN(Cc2nc3cccnc3n2-c2cccc(F)c2)CC1 the results were Anaer choline gr inactive and Anaer choline gr early 0.02.
Screening Cc1cc(NC(=O)Nc2ccc3nc(N4CCOCC4)cc(C)c3c2)ccc1Br returned Anaer choline gr inactive and Anaer choline gr early -1.26.
For CC(C)CCNC(=O)Cn1nc(N2CCN(c3ccccc3)CC2)ccc1=O the results were Anaer choline gr inactive and Anaer choline gr early -0.16.
`CC1(C)S[C@@H]2[C@H](NC(=O)Cc3ccccc3)C(=O)N2[C@H]1C(=O)O` gave Anaer choline gr inactive and Anaer choline gr early 0.75.
For CCCCc1oc2ccccc2c1C(=O)c1cc(I)c(OCCN(CC)CC)c(I)c1 the results were Anaer choline gr inactive and Anaer choline gr early 0.05&0.9&0.28&2.02.
Screening CCOC(=O)c1nc(NCCc2c[nH]c3ccc(Cl)cc23)c2c(C)noc2n1 returned Anaer choline gr inactive and Anaer choline gr early 0.54.
For CCc1cc(-c2csc(S(=O)(=O)N3CCN(c4ncccn4)CC3)c2)on1 the results were Anaer choline gr inactive and Anaer choline gr early -0.51.
`Cc1ccc(S(=O)(=O)c2cnc(N3CCN(c4ccccn4)CC3)nc2N)cc1C` gave Anaer choline gr inactive and Anaer choline gr early -0.34.
COc1ccc(CNS(=O)(=O)c2ccc3c(c2)sc(=O)n3CC(=O)N2CCCC2)cc1 was read as Anaer choline gr inactive and Anaer choline gr early 0.11.
For O=C(CCC(=O)N1Cc2cccn2-c2ccccc21)N1CCN(c2ccc(F)cc2)CC1 the results were Anaer choline gr inactive and Anaer choline gr early 0.88.
Screening CCc1onc(C)c1C1CCCN1Cc1ccc(O)cc1 (stereo unspecified) returned Anaer choline gr inactive and Anaer choline gr early -2.05.
`CC1(C)C(=O)N(CC(=O)NC2CCCCC2)c2ccc(S(=O)(=O)N3CCCCC3)cc21` gave Anaer choline gr inactive and Anaer choline gr early 0.
For CCN(CC)c1ccc(C(=O)NCc2nc3cccnc3n2Cc2ccccc2)cc1 the results were Anaer choline gr inactive and Anaer choline gr early 0.74.
`CCOC(=O)C1CCN(c2cc3c(cc2NC(=O)c2cccc(C)c2)n(C)c(=O)n3C)CC1` gave Anaer choline gr inactive and Anaer choline gr early -1.43.
Screening O=C(Nc1ccc(N2CCOCC2)cc1)c1cccc(Nc2ncc(-c3cccc(F)c3)cn2)c1 returned Anaer choline gr inactive and Anaer choline gr early -0.44.
O=C(NCCC1=CCCCC1)c1ccc(-c2nccc(Oc3ccccc3)n2)cc1 was read as Anaer choline gr inactive and Anaer choline gr early 1.71.
Screening Cc1ccc(-c2nc(C3CCN(S(=O)(=O)c4ccc(F)c(C)c4)CC3)no2)cc1 returned Anaer choline gr inactive and Anaer choline gr early -0.1.
CC(C)c1cc(C(=O)N2CCN(C)CC2)no1 was read as Anaer choline gr inactive and Anaer choline gr early -1.78.
O=C(CC1CCN(C(=O)C2CCCCC2)CC1)NCCc1c[nH]c2ccc(Cl)cc12 was read as Anaer choline gr inactive and Anaer choline gr early 0.2.
For O=c1[nH]c2ccc(S(=O)(=O)NCC3CCCO3)cc2[nH]1 (stereo unspecified) the results were Anaer choline gr inactive and Anaer choline gr early -1.2.
`CC(C)(O)c1ccccc1CCC(SCC1(CC(=O)O)CC1)c1cccc(C=Cc2ccc3ccc(Cl)cc3n2)c1` (stereo unspecified) gave Anaer choline gr inactive and Anaer choline gr early 1.84&-0.77.
For Cc1cc(N2CCN(C(=O)C3CCC3)CC2)nc2nnc(C)n12 the results were Anaer choline gr inactive and Anaer choline gr early 0.16.
`C=CCN(C(=O)CSc1nc2ncccc2o1)c1ccccc1` gave Anaer choline gr inactive and Anaer choline gr early 0.08.
`CCOc1cc(C2Nc3ccc(C)cc3[C@H]3OCC[C@@H]23)ccc1OC` (stereo partly specified) gave Anaer choline gr inactive and Anaer choline gr early 0.2.
`COc1cccc(C(=O)N2CSC[C@@H]2C(=O)NCc2csc(-c3ccccc3)n2)c1` gave Anaer choline gr inactive and Anaer choline gr early 1.53.
CCN(C(=O)C1CCCN1S(=O)(=O)c1cc2c(cc1C)NC(=O)CO2)c1ccc(OC)cc1 (stereo unspecified) was read as Anaer choline gr inactive and Anaer choline gr early -0.38.
For CC(C)N1CCC2(CC1)N=C(c1ccc3c(c1)OCO3)CC(c1ccccc1O)N2 (stereo unspecified) the results were Anaer choline gr inactive and Anaer choline gr early -1.72.
For Cn1nc(C(=O)N2CCCC2)c2c1CCN(C(=O)CCC(=O)NCCc1c[nH]c3ccccc13)C2 the results were Anaer choline gr inactive and Anaer choline gr early -0.63.
For COc1ccc(Cl)cc1C(=O)Nc1ccc(-c2nc3ccccc3s2)c(Cl)c1 the results were Anaer choline gr inactive and Anaer choline gr early -1.49.
For O=C(NCc1ccccc1Cl)c1ccc(-n2cnc3cccnc32)cc1 the results were Anaer choline gr inactive and Anaer choline gr early 0.96.
Screening Cc1nc2cccnc2n1-c1cc(C(=O)NC2CCCc3ccccc32)ccc1Cl (stereo unspecified) returned Anaer choline gr inactive and Anaer choline gr early 1.77.
`CNc1nc(Nc2ccc(Cl)cc2)c2cnn(-c3ccccc3)c2n1` gave Anaer choline gr inactive and Anaer choline gr early 1.13.
`NS(=O)(=O)c1cc2c(cc1Cl)NC(CC1CCCC1)NS2(=O)=O` (stereo unspecified) gave Anaer choline gr inactive and Anaer choline gr early 0.45.
`CCCc1cc(=O)[nH]c2nnc(SC(C)CC)n12` (stereo unspecified) gave Anaer choline gr inactive and Anaer choline gr early -0.05.

The closing 2 records of the part before open the next one.
`NS(=O)(=O)c1cc2c(cc1Cl)NC(CC1CCCC1)NS2(=O)=O` (stereo unspecified) gave Anaer choline gr inactive and Anaer choline gr early 0.45.
`CCCc1cc(=O)[nH]c2nnc(SC(C)CC)n12` (stereo unspecified) gave Anaer choline gr inactive and Anaer choline gr early -0.05.
For Cc1noc(-c2ccc(NC(=O)C(C)(C)C)cc2)n1 the results were Anaer choline gr inactive and Anaer choline gr early -1.12.
For CC1=C(C(=O)NCCN(CC(C)C)CC(C)C)C2(CCN(S(C)(=O)=O)CC2)OC1=O the results were Anaer choline gr inactive and Anaer choline gr early -0.25.
C=C(C)Cn1c(CCCNC(=O)COc2ccccc2)nc2ccccc21 was read as Anaer choline gr inactive and Anaer choline gr early 0.61.
Screening CC1Oc2ccccc2N(CC(=O)Nc2ccc3c(c2)nc(CCc2ccccc2)n3C)C1=O (stereo unspecified) returned Anaer choline gr inactive and Anaer choline gr early 0.09.
Screening c1ccc(CNc2cc(-n3ccnc3)ncn2)cc1 returned Anaer choline gr inactive and Anaer choline gr early -1.25.
For CC(=O)c1ccc2c(c1)N(CCCN1CCC(CCO)CC1)c1ccccc1S2 the results were Anaer choline gr inactive and Anaer choline gr early 0.05.
Screening Cc1noc(C2CN(S(=O)(=O)N(C)C)CC23CCOCC3)n1 (stereo unspecified) returned Anaer choline gr inactive and Anaer choline gr early 0.05.
`CCCCC(=O)NC1CC(=O)N(c2ccc3c(c2)OCCO3)C1` (stereo unspecified) gave Anaer choline gr inactive and Anaer choline gr early -0.7.
`COc1ccc(-c2nonc2NC(=O)COc2cc(C)ccc2C(C)C)cc1C` gave Anaer choline gr inactive and Anaer choline gr early 0.93.
`CC(C)CNC(=O)CN1CCN(c2cc(C(=O)O)c3cc(NC(=O)C4CCC4)ccc3n2)CC1` gave Anaer choline gr inactive and Anaer choline gr early 0.56.

Structural class, those above with two or more sulfur atoms.
Cc1cccc(NC(=O)C2CCN(S(=O)(=O)c3cccc4nsnc34)CC2)c1C was read as Anaer choline gr inactive and Anaer choline gr early 1.3.
For CCc1cc(-c2csc(S(=O)(=O)N3CCN(c4ncccn4)CC3)c2)on1 the results were Anaer choline gr inactive and Anaer choline gr early -0.51.
COc1ccc(CNS(=O)(=O)c2ccc3c(c2)sc(=O)n3CC(=O)N2CCCC2)cc1 was read as Anaer choline gr inactive and Anaer choline gr early 0.11.
`COc1cccc(C(=O)N2CSC[C@@H]2C(=O)NCc2csc(-c3ccccc3)n2)c1` gave Anaer choline gr inactive and Anaer choline gr early 1.53.
`NS(=O)(=O)c1cc2c(cc1Cl)NC(CC1CCCC1)NS2(=O)=O` (stereo unspecified) gave Anaer choline gr inactive and Anaer choline gr early 0.45.

(more compounds)
Screening Clc1ccc(-c2csc3ncnc(NCCc4ccccc4)c23)cc1 returned Anaer choline gr inactive and Anaer choline gr early 1.94.
CCOC(=O)c1c(NC(=O)C2Cc3ccc(C)cc3C(=O)O2)sc2c1CCCC2 (stereo unspecified) was read as Anaer choline gr inactive and Anaer choline gr early 0.38.
For COc1ccc(C(=O)CSc2nnc3n2CCN3c2ccc(OC)cc2)cc1 the results were Anaer choline gr inactive and Anaer choline gr early -0.01.
`Cc1cccc(NC(=O)CCc2nc(CSc3nc4ccccc4s3)no2)c1C` gave Anaer choline gr inactive and Anaer choline gr early 0.08.
For CCOC(=O)c1c(NC(=O)CCn2c(=O)oc3ccccc32)sc(C(=O)Nc2ccccc2)c1C the results were Anaer choline gr inactive and Anaer choline gr early 0.49.
CC(=O)N1CCC2(CC1)OC(=O)C(C)=C2C(=O)N1CCC(C)CC1 was read as Anaer choline gr inactive and Anaer choline gr early -1.34.
`Cc1ccc(CN2CCN(C3CCN(C(=O)c4cccnc4)CC3)C(=O)C2=O)cc1` gave Anaer choline gr inactive and Anaer choline gr early 0.12.
For CCc1nnc(-c2ccc(S(=O)(=O)NC3CCCC3)o2)o1 the results were Anaer choline gr inactive and Anaer choline gr early -1.03.
Screening Cc1ccc(-c2nccc(N3CCC(C(=O)NCc4ccc(Br)cc4)CC3)n2)cc1 returned Anaer choline gr inactive and Anaer choline gr early -0.37.
`COc1ccc(S(=O)(=O)N2CCc3cc4cc(C)ccc4nc32)c(OC)c1` gave Anaer choline gr inactive and Anaer choline gr early -0.33.
For Cc1ccccc1C(=O)NCC(c1ccccc1)c1c[nH]c2ccccc12 (stereo unspecified) the results were Anaer choline gr inactive and Anaer choline gr early -0.15.
